# gsp antag: gsp mutant antagonism | actives 0.4% (n = 340,000) | Potency, µM (titrated, usually from 76.9 µM), for the others: top-dose activity change, negative = inhibition, usual class: inhibitors | gsp-mutant cells, cAMP HTRF, 30 min; control for the full effect not named in the record | AID 624288; active = falling curve of any shape with a large fitted effect; inconclusive = falling curve, mostly with a smaller effect; inactive = flat or rising curve; cell line not stated here;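 note: intracellular cAMP measured with PDE inhibitor Ro 20-1724 present during compound exposure; potency is the fitted concentration of half-maximal effect; % is set by controls: 0 for no effect and ±100 for the full control effect; nearly all actives have a fitted effect of over 65% in size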
#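 Cells, 2000/well, grown 16–24 h in DMEM 10% FBS with 0.5 mg/ml G418, then compounds plus […] (300 uM addition stock), 30 min at 37C. cAMP read by HTRF (cAMP-d2 and anti-cAMP antibody-K in lysis buffer) after 30 min RT.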
# Menin-MLL FL inh: displaces fluorescein MLL peptide from human menin. 290,000 tested, under 10 active. AID 1766. FP activity change, % at 61.4 µM. Fluorescence polarization, fluorescein-MLL peptide displacement from menin; inconclusive = falling polarisation curve, or a change in total fluorescence; inactive = total fluorescence flat and polarisation flat or rising; no compound was filed as active; the % refers to the polarisation; negative = inhibition;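 note: % of control where 0% means no effect; inhibitors lower the polarisation; unlabelled MLL peptide was the positive control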
# gsp agonist: agonists of gsp mutant (McCune-Albright syndrome). gsp mutant cells, cAMP HTRF, 30 min; control for the full effect not named in the record. actives 0.13% (n = 340,000). AID 624287. Potency, µM (highest dose often 76.9 µM), inactives show top-dose activation (cAMP increase), actives largely listed as activators; active = well fitted activation curve with a large enough effect; inconclusive = small, poorly fitted or top-dose-only effect, or another doubt; inactive = no such curve, though single readings can be large or run the other way; cell line not stated here;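 note: phosphodiesterase inhibitor Ro 20-1724 added with compounds to block cAMP breakdown; potency is the fitted concentration of half-maximal effect; nearly all actives have a fitted effect of over 60% in size; about a fifth of the inactives were tested at one dose only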
#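 Cells in DMEM/10% FBS with G418 were pretreated with compounds in DMSO plus […] (300 uM stock) for 30 min at 37C. cAMP was measured by HTRF (cAMP-d2 plus anti-cAMP antibody-K) after 30 min at room temperature.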
# PINK1 expr mod: modulators of PINK1 expression; PINK1 immunofluorescence, high-content cytometry, 24 h; Potency, µM (doses to about 76.6 µM), without a hit: at the top dose activation (PINK1 increase), actives largely listed as activators; actives 0.2% (n = 410,000); AID 624263; active = well fitted activation curve with a large enough effect; inconclusive = small, poorly fitted or top-dose-only effect; inactive = flat fitted curve, though single readings scatter; cell line not stated here;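 note: potency is the fitted concentration of half-maximal effect; % of control where 0% means no effect; nearly all actives have a fitted effect of over 65% in size; a mitochondrial uncoupler was the plate control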
#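 Compound titrations (5 concentrations, 24 h) on a stable cell line; DMSO and CCCP controls. Endpoint: fixed-cell PINK1 immunofluorescence with mitochondrial, cell and nuclear markers, scanned by microplate cytometer.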
# ClpP mod: qHTS Assay for Activators of ClpP; purified B. subtilis ClpP, FRET peptide cleavage, 20 min; Potency, µM (doses to about 57.5 µM), for the others: at the top dose activity change, negative = active; actives 1.9% (n = 340,000); ATP-dependent Clp protease proteolytic subunit (Bacillus subtilis (strain 168)), P80244; AID 651965, 2013; active = well fitted falling curve with a large enough effect; inconclusive = small, poorly fitted or top-dose-only effect; inactive = no such curve, though single readings can be large or run the other way; note: potency is the fitted concentration of half-maximal effect; the source files actives as falling curves though it sought activators and does not explain the sign; nearly all actives have a fitted effect of over 65% in size; many hits overshoot -100%
# Target sequence (P80244 whole entry, looked up): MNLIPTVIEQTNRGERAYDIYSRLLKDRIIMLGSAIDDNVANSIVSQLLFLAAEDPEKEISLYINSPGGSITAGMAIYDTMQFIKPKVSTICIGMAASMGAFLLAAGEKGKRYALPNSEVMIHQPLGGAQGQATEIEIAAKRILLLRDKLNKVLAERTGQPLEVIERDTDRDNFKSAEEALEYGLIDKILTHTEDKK
#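 FRET quenching reversal measured ClpP activation: 10 microg/mL B. subtilis ClpP at pH 8 with the FRET-FV decapeptide, read at 430 nm after 320 nm excitation. The 20-min minus 0-min signal was scaled between DMSO/no-enzyme wells and ADEP (5.8 microM final).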
# Sfp inh: Sfp phosphopantetheinyl transferase inhibition; Q9F4F7; Biochemical Sfp PPTase activity, qHTS; Potency, µM, for inactives: max response, negative = inhibition, actives largely listed as inhibitors; actives 3.5% (n = 310,000); active = well fitted inhibition curve with a large enough effect; inconclusive = small, poorly fitted or top-dose-only effect, or another doubt; inactive = no such curve, though single readings can be large or run the other way;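 note: the enzyme is Sfp with the accession as filed and its product quenches rhodamine fluorescence; potency is the fitted concentration of half-maximal effect; 0% = enzyme reaction without inhibitor and -100% = no enzyme wells; top concentration of the series not given in the record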
#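 Step 1, compound plus 15 nM Sfp-PPTase, 15 min, room temperature. Step 2, add rhodamine-CoA (5 uM) and BHQ-2-YbbR (12.5 uM). Step 3, read 525/598 nm fluorescence at 0 and 30 min.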
# D2 agonist: agonists of human D2 dopamine receptor (beta-arrestin); DiscoveRx PathHunter D2 beta-arrestin, luminescence, 90 min; 100% = 57 uM dopamine signal; actives 0.084% (n = 360,000); activation, % (no concentration beside the values); AID 624465; in the data active = activation above about 40%; inconclusive = about 15% to 40%; inactive = below about 15%; note: compound concentration not given in the record; the text of the record calls up to 30% inactive
# Target sequence (P14416 whole entry, looked up): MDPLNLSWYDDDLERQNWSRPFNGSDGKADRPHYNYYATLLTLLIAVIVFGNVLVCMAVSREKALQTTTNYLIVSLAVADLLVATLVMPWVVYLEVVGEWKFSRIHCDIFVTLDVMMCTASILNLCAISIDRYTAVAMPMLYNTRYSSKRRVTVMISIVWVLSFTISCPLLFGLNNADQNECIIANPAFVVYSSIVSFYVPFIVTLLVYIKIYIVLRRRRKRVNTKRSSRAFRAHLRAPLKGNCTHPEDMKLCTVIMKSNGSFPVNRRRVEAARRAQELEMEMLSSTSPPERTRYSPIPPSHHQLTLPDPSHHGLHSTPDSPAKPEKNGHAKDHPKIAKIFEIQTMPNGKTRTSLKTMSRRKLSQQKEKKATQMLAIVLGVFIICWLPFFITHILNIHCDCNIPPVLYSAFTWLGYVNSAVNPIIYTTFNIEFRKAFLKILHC
#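 Agonist mode: compounds alone added to overnight-plated D2 PathHunter cells for 90 min at 37 C, with 57 uM final dopamine (EC100) defining full response. Beta-arrestin recruitment detected by chemiluminescent reagent, read after 1 h at ambient temperature.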
# Active calls of the source: *; ? = inconclusive; . = no result given; & = joins results of further samples; [ ] = another dose, or the depositor's remark.
SMILES,gsp antag,Menin-MLL FL inh,gsp agonist,PINK1 expr mod,ClpP mod,Sfp inh,D2 agonist
CCOC(=O)C1CCN(c2nc(N)c3c(N)nc(SCC(=O)O)cc3c2C#N)CC1,-10%,?,?,0.9%,3.7%,6.3µM*,5.7
O=C(Cn1nnc2c(cnn2-c2ccc(F)cc2)c1=O)c1ccccc1F,11%,2.4,9%,8.2%,-4.9%,14%,0.9
O=C(COC(=O)Cn1cnc2ccccc21)Nc1ccccc1C(F)(F)F,26%,.,4%,4.3%,2.9%,.,-0.8
CCOC(=O)C1(CCOc2ccccc2)CCN(CC=C(C)C)CC1,12%,-1.8,0%,1.5%,.,-3%,2.7
c1cncc(-c2nc(N3CCOCC3)c3c4c(sc3n2)CCC4)c1,-24%,-3.1,-5%[15.4 µM],0.7%,-1.7%,-1%,-1.4
CCc1nn(CCCC(=O)Nc2ccc(C)cc2C)c(=O)c2cc3occc3n12,-2%,5.0,-2%,1.1%,-6.3%,14%,1.3
Cc1cc(S(=O)(=O)N2CCOCC2)ccc1OCC(=O)Nc1cccc(F)c1,-11%,-9.1,-10%[15.4 µM],0.5%,?,10%,-2.3
COc1cc(/C=N/NC(=O)CCN2CCN(C)CC2)cc2c1OCO2,5%,.,-18%,-0.7%,16µM*,14%,-4.9
COc1ccccc1/C=N/n1c(N)c(C(=O)NC2CCCCC2)c2nc3ccccc3nc21,6%,4.2,15%,8.4%,44%,8%,-0.1
N#Cc1cc([N+](=O)[O-])ccc1N1CCN(c2ccccc2O)CC1,?,-0.7,5%[15.4 µM],-1.2%,0.6%,5%,2.4
O=C(Cn1cnc2c(nnn2Cc2ccc(F)cc2)c1=O)NCc1ccc2c(c1)OCO2,5%,0.8,-2%,-2.7%,-3.5%,8%,-0.1
Cc1[nH]nc(-c2ccc(O)cc2O)c1-c1nc2ccccc2s1,-12%,0.3,5%[15.4 µM],-0.7%,.,14%,-3.9
COc1cc(C(=O)NCCC(=O)NC(C)C)cc(OC)c1OC,12%,1.9,6%[15.4 µM],-1.0%,.,17%,-2.5
Cc1cccc(C(=O)Nc2c(C(=O)N(C)C)cnn2-c2ccccc2)c1,9%,3.4,5%[15.4 µM],-0.5%,-1.9%,13%,5.1
CCOc1ccc(S(=O)(=O)NCCC(=O)N2CCCCCCC2)cc1,8%,.,-8%[15.4 µM],-1.4%,-23%,.,-3.0
Cc1ccc(/C=[N+](\[O-])c2ccccc2C)o1,7%,1.9,?,-0.1%,1.2%,9%,2.0
CCOc1ccccc1NC(=O)c1cccc(N2C(=O)CCC2=O)c1,1%,-1.4,-30%[inhibitor],4.8%,1.5%,-21%,-5.7
CCOC(=O)c1ccc(NC(=O)c2nc(SC)ncc2Cl)cc1,-5%,-1.9,6%,0.1%,-2.6%,-10%,-5.0
O=C(CSc1ccc2nnc(-c3ccccn3)n2n1)Nc1ccccc1F,17%,.,26%,0.8%,-5.5%,6%,-2.1
Cc1cccc(N2CCN(S(=O)(=O)c3ccc4c(c3)CCN4C(=O)CCC(=O)O)CC2C)c1 (centres undefined),-7%,2.5,9%,2.2%,0.0%,-2%,-6.4
Cc1ccc(-c2ccccc2C2=CC(=O)CC(C)(C)C2=O)cc1,.,.,-35%[inhibitor],1.2%,0.7%,.,-2.8
CC(C)Cc1nnc(NC(=O)CCC(=O)NC2CCCCCC2)s1,19%,-1.2,5%,-0.7%,0.8%,7%,-9.9
CC(=O)c1ccc(S(=O)(=O)N(CCCO)Cc2cc3cc(C)ccc3[nH]c2=O)cc1,-2%,0.0,1%,-0.5%,.,10%,-1.8
O=C(CSc1ccc(-c2ccc(-n3cccn3)cc2)nn1)Nc1ccc([N+](=O)[O-])cc1,-12%,.,8%,1.8%,?,.,-3.5
CNC[C@@H]1OCc2ccccc2-c2ccccc2C(=O)N([C@H](C)CO)C[C@@H]1C,.,.,?,1.8%,-2.0%,.,-3.4
CC1CCCC(C)N1C(=O)c1cc2ncc(CCCl)cn2n1 (centres undefined),11%,-1.3,-32%[inhibitor],-2.6%,-3.2%,-2%,-1.0
Cn1ncc([N+](=O)[O-])c1C(=O)Nc1ccccc1,-3%,1.1,-5%,0.4%,-0.3%,13%,1.1
CC1(C)CC(=O)C=C(c2cccc(CO)c2)C1,7%,.,?,-0.9%,1.2%,.,-4.6
CCOc1ccc(NC(=O)CN(C)S(=O)(=O)c2cnc[nH]2)cc1,5%,0.9,?,4.3%&-1.4%,1.1%&-1.0%,14%,-3.6
COC(=O)C1=C(O)CSC1=Nc1ccccc1,7%,4.0,-3%,2.9%,0.8%,9%,-4.3
CN1C=CC2=C(C#N)C(N)C(C#N)(C#N)C(c3ccccc3)C2C1 (centres undefined),?,?,?,11µM*,28µM*,1%,-5.4
O=C(COC(=O)c1cccc(Cl)c1)NC(=O)NCc1ccccc1,5%,.,9%[15.4 µM],13%,-3.7%,.,1.7
CCOc1ccc(NC(=O)c2ccc(NC(=O)CN3C(=O)C(=O)N(CC(C)C)C3=O)cc2)cc1,9%,.,2%,2.8%,2.3%,.,-6.7
CCOC(=O)c1c(NC(=O)CS(=O)(=O)c2cn(CC)c3ccccc23)sc2c1CCCC2,?,0.4,?,0.0%,-15%,-7%,-6.9
COc1cccc(C(=O)Nc2nnc(SCC(=O)Nc3ccc(NC(C)=O)cc3)s2)c1,5%,.,?,1.8%,-1.5%,8%,0.3
O=C(NC(=S)NCc1ccco1)c1ccc(Br)cc1,-10%,1.4,4%[15.4 µM],3.7%,-1.1%,1%,4.9
COCCC(=O)N1CCC(Oc2ccc(C(=O)NC(C)CCn3cccn3)cc2)CC1 (centres undefined),2%,.,2%,1.4%,2.1%,12%,-6.2
O=C(c1ccc(-c2ccc([N+](=O)[O-])cc2)o1)N1CCCCC1,-11%,3.8,-10%,0.2%,0.4%,16µM*,4.8
O=C(CCOc1ccccc1)Nc1ccc(S(=O)(=O)Nc2ncccn2)cc1,7%,.,?,1.3%,-0.1%,.,-2.6
CCOC(=O)C1CCCN(C(=O)/C=C/c2cc(OC)c(OC)c(OC)c2)C1 (centres undefined),-4%,4.6,13%[15.4 µM],2.4%,.,26%,-1.3
CC(=O)N1CCN(C(=O)c2[nH]c(C(F)(F)F)nc2-c2ccccc2)CC1,.,.,.,2.8%,1.9%,.,5.1
Cc1cc(O)ccc1N/C=C1\CCCC1=O,-15%,-0.4,4%,0.7%,0.6%,?,12
C#Cc1ccc(CN2CCC(N3CCC(C(=O)NCc4ccccn4)CC3)CC2)cc1,12%,.,?,0.9%,-0.1%,0%,-1.5
Cc1ccc(SCc2nc3ccccc3n2CC(=O)Nc2ccccc2)cc1,-14%,4.6,?,6.6%[38.3 µM],0.0%,50µM*,0.1
O=C(NNC(=O)c1csc(N2CCOCC2)n1)c1ccc(Cl)nc1,0%,.,21%,0.8%,-3.4%,.,-3.8
COc1cc(OC)nc(NC(C)=O)n1,13%,1.0,4%,-1.0%[38.3 µM],0.8%,0%,-1.9
CC(=O)NC(C)(c1ccccc1)c1nc(-c2ccncc2)cs1 (centres undefined),.,.,.,0.1%,-2.1%,.,-1.7
O=C(C1CCCCC1)N1C[C@@H](O)[C@H](n2cc(-c3ccc(F)cc3)nn2)C[C@@H]1c1ccccc1,.,.,-85%[inhibitor],2.4%,-1.8%,.,-1.5
COc1cccc(Nc2nc(C(N)c3ccccc3Cl)cs2)n1 (centres undefined),.,.,.,7.8%,-9.3%,.,3.7
Cc1cccc(N(C)S(=O)(=O)c2ccc3c(c2)C(C)(C)C(=O)N3C)c1,-11%,-1.2,-36%[inhibitor],2.5%,1.6%,7%,3.6
Cc1ccc(C)c(NC(=S)N/N=C/C(C)c2ccccc2)c1 (centres undefined),6%,-4.5,-4%[15.4 µM],-0.9%,.,-30%,0.1
CC1=C(C)CC(C(=O)NNC(=O)c2ccccc2)C(C(=O)O)C1 (centres undefined),-2%,1.4,-14%,-2.5%,-1.5%,15%,-3.6
Cc1ccc(C)c(S(=O)(=O)N2CCCN(C)CC2)c1,5%,4.3,-1%,-2.0%,.,-6%,-1.3
O=C(CN1CCCCCC1)NC(c1ccccc1)c1ccccc1,6%,-4.7,?,2.1%,.,-30%,-4.2
COc1ccc(NC(=O)c2cc(C3CCCCN3C(=O)OCCF)on2)c(C)c1 (centres undefined),.,.,.,1.2%,-0.8%,.,-4.5
COc1cc(/C=N/Nc2ccc(C(F)(F)F)cn2)ccc1O,5%,-0.5,-14%,0.4%,-6.7%,1%,-3.1
Cc1ccc2cccnc2c1NC(=S)NC(=O)c1ccccc1,-2%,-6.2,7%,-4.1%[38.3 µM],2.1%,18µM*,-4.9
Cc1cnc(C)c(Nc2nc(C(N)Cc3ccc(Cl)cc3)cs2)n1 (centres undefined),.,.,.,-1.1%,-1.9%,.,6.8
CCN(CC(=O)Nc1c(F)cccc1F)C(=O)CSc1nnc(-c2ccco2)n1CC,9%,.,3%[15.4 µM],0.0%,-1.3%,7%,-0.6
CCN(CC)CCCN1C(=O)c2oc3ccccc3c(=O)c2C1c1cccc(OC)c1OC (centres undefined),6%,2.5,-46%[inhibitor],0.0%,-6.3%,10%,-1.4

# Next section:
SMILES,gsp antag,Menin-MLL FL inh,gsp agonist,PINK1 expr mod,ClpP mod,Sfp inh,D2 agonist
COc1ccc([N+](=O)[O-])cc1NC(=O)C(C)OC(=O)C1CCCC1 (centres undefined),-7%,.,22%,1.5%,-1.6%,0%,-3.0
COCCNC(=O)c1c[nH]c2ccc(S(=O)(=O)Nc3ccccc3F)cc2c1=O,-3%,-3.0,-25%,-0.8%,-16%,13%,0.0
COc1ccccc1C(=O)Nc1ccc(S(=O)(=O)Nc2cc(C)nc(C)n2)cc1,-16%,2.1,?,3.0%[38.3 µM],1.1%,12%,1.1
Cc1cccc2cc3c(N)c(C(=O)N4CCOCC4)sc3nc12,11%,?,19%[15.4 µM],0.8%,-11%,?,-5.6
CCCC(NC(=O)C(C)NC(=O)CO/N=C1\C=C2CCC3C4CCC(C(C)=O)[C@@]4(C)CCC3[C@@]2(C)CC1)C(=O)O (some centres undefined),-21%,6.0,?,-1.8%,1.1%,4%,8.9
